Screening data deposited in PubChem by several laboratories.
LANA-H2A inh: blocks KSHV LANA binding to histone H2A/H2B; Q9QR71; cell-free LANA-H2A/H2B peptide, fluorescence polarization; inhibition, % (test concentration not listed); 0.6% of 320,000 active; AID 2629; in the data active means inhibition mostly above about 10%, no sharp cut-off; inactive means mostly below about 6.7%;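 further: stock transfer was 7.5 nL into about 10 µL; 0% = median of vehicle wells and 100% = median of positive control wells; one replicate is shown; the record names a cut of 25% in any replicate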
Calb FLC: C. albicans growth modulation with fluconazole. C. albicans CaCi-2 (fluconazole-resistant clinical isolate) + fluconazole, Alamar Blue growth, 48 h. growth inhibition, % (concentration not given with the values). 0.57% of 300,000 active. AID 1979;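 active means most replicates above 75%; inconclusive means exactly half above 75%; inactive means most below 75%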;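 further: all wells also contain fluconazole at 8 µg/ml as a sub-toxic cotreatment; 0% = median of DMSO wells and 100% = median of geldanamycin control wells; wells of about 8 µL received 7.5 nL stock; the first replicate is given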
ALR inh: blocks human ALR sulfhydryl oxidase activity; P55789; purified ALR, DTT oxidation, H2O2 HRP-luminol luminescence; inhibition, % (test concentration not listed); 3.8% of 290,000 active; AID 485317;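 active means mean and each replicate at 75% or more; inconclusive means only one of the two met; inactive means neither met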;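 further: stock transfer was 7.5 nL into about 7.5 µL; 0% = neutral wells and 100% = wells with inactivated enzyme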
Target sequence (P55789 whole entry, looked up): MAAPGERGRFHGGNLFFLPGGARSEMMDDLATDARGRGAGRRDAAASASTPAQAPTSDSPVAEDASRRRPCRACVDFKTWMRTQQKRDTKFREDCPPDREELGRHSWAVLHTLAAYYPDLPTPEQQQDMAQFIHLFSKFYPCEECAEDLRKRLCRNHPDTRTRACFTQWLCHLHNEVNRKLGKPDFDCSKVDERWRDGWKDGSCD
B2AR ag: activates human beta-2 adrenergic receptor causing internalization. P07550. Am2.2-beta2AR cells, FAP receptor internalization, flow cytometry; reference of the scale not given here. response, % (no concentration beside the values). 0.43% of 340,000 active. AID 504454;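 active means response above a set limit, near 3 SD of response in nonfluorescent compounds, cut at about 42% in these data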;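 further: stock transfer was 100 nL into about 11 µL; a reference agonist was the positive control; negative values mostly stem from fluorescent compounds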
Target sequence (P07550 whole entry, looked up): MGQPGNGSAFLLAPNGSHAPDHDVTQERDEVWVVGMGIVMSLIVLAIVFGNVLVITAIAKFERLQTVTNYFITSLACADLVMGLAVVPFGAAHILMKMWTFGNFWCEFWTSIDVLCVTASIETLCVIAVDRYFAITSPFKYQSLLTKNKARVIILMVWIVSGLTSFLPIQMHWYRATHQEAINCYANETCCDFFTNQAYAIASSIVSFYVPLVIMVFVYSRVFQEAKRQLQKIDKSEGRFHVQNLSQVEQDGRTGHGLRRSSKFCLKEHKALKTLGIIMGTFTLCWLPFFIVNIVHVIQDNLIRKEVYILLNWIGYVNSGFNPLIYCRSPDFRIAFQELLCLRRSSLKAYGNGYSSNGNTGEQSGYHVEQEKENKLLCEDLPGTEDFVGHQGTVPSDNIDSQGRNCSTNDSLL
Vif TR-FRET: inhibitors of Vif binding to APOBEC3G peptide, primary screen, biochemical, TR-FRET, GST-Vif 1-94, biotin-A3G peptide, dose response retest (AID 1117319) | TR-FRET GST-Vif / biotin-A3G peptide binding; higher % means a stronger effect; test concentration not given here; strong numbers were not always called active | one-dose inhibition, %; IC50 in µM for titrated hits | 0.57% of 260,000 active;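 active means above the screen mean plus three standard deviations and confirmed in dose response; inconclusive means results disagree or hit not tested in dose response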;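 further: Vif residues 1-94 fused to GST binding biotinylated APOBEC3G peptide 110-148; 0% = full assay without inhibitor and 100% = GST in place of GST-Vif; retest series ran down from 100 µM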
HNF4A DNA FP: change in binding of human HNF4 alpha to DNA. P41235. 0.3% of 360,000 active. HNF4a-FITC DNA binding, fluorescence polarization, 1 h. activity change, % at 10 µM. AID 1224865; in the data active means activity change above about 30%, passing the limit was not always enough;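 further: controls were the assay level and a saturating level of protein; the project sought stronger binding though the title names inhibitors; some compounds called inactive have numbers as strong as hits; positive values seem to mean higher polarization but the record does not say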
Target sequence (P41235 whole entry, looked up): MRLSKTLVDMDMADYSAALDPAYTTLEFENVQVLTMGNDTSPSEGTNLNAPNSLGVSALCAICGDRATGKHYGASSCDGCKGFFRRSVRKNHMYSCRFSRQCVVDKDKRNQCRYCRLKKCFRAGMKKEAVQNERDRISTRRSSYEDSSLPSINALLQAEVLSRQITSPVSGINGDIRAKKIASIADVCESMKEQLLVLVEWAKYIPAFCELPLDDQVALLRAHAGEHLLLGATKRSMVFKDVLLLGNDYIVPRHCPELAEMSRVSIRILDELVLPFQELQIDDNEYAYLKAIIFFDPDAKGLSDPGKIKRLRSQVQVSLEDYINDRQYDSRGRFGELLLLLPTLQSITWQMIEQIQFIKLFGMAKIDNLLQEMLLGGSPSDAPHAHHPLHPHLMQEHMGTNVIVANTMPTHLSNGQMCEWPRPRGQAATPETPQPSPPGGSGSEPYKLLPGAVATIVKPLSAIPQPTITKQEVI
RanGTP-Imp inh: disruptors of Ran-importin-beta complex formation – biochemical, FRET, CFP-Ran, YFP-importin-beta, homogeneous, primary screen | inhibition, % (concentration not given with the values) | 1.1% of 300,000 active | cell-free CFP-Ran/YFP-importin-beta FRET ratio;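 active means most replicates above 15%; inconclusive means exactly half above 15%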;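 further: 0% = DMSO wells and 100% = Ran loaded with GDP instead of GTP; wells of about 40 µL received 100 nL stock; the first replicate is given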
An asterisk follows results filed as active; u = inconclusive; x = not tested or not shown; & = joins results of further samples.

SMILES	LANA-H2A inh	Calb FLC	ALR inh	B2AR ag	Vif TR-FRET	HNF4A DNA FP	RanGTP-Imp inh
COc1ccc(-c2cc3ccccc3[nH]2)cc1	7.6	32	0	3	-1%	2.9	-6.7
CSc1ccc(NC(=O)CSc2nc3[nH]c(=O)cc(O)c3s2)cc1	x	x	99*	3	-15%	-22	x
CCn1c(=O)c(C(=O)CN(C)CC(=O)Nc2cccc(F)c2)c(N)n(Cc2ccccc2)c1=O	0.6	x	-2	1	x	5.8	x
COc1ccc(C2(CN(C(C)=O)C(C)=O)CCCC2)cc1OC	-3.7	-3	-9	-3	-2%	-2.4	-0.6
CC(C)OC(=O)CSc1nc2c(c(C3CC=CCC3)c1C#N)CCC2 (stereo not given)	-3.1	-7	-2	6	-1%	-3.3	0.7
COc1ccc(CCNc2ccc(S(N)(=O)=O)cn2)cc1	-10	10	-3	0	x	0.0	-0.7
O=C(OCc1ccc(Br)cc1)c1cccnc1	1.4	-14	0	14	-8%	1.4	0.4
Cc1ccc(Cn2cccc(NC(=O)c3ccco3)c2=O)cc1	-5.1	-9	-8	-14	26%	1.5	-3.9
Cc1ccc(Cl)c(NC(=O)CSc2n[nH]c(=O)n2C2CC2)c1Cl	-0.6	x	2	-5	-2%	-1.9	x
COc1cccc(N2CCN(CC(=O)c3c[nH]c4ccc(OC)cc34)CC2C)c1 (stereo not given)	3.9	1	8	2	16%	2.5	-2.5
CN(C(=O)COC(=O)C1CCN(S(=O)(=O)c2c(Cl)cccc2Cl)CC1)c1ccccc1	-4.5	5	-7	3	-6%	-4.8	6.1
CCCn1c(SCC(=O)Nc2ccc(S(=O)(=O)N(C)C)cc2)n[nH]c1=O	-2.6	-35	-3	-3	x	-1.6	5.6
CC1(C(=O)Nc2ccccc2)Cc2ccccc2C(=O)O1 (stereo not given)	5.2	6	-2	-3	-6%	-2.8	2.5
COc1cc(/C=C/C(=O)OCN2C(=O)c3ccccc3C2=O)ccc1OC(F)F	2.0	1	-5	11	-13%	-2.1	-3.0
O=S(=O)(c1ccc(-c2n[nH]c(=S)o2)cc1)N1CCCC1	-7.2	7	x	2	x	4.7	u
O=C(COC(=O)c1ccccn1)Nc1nc(-c2cccc([N+](=O)[O-])c2)cs1	2.0	6	-6	6	12%	-1.3	-0.5
CC(=O)c1nnn(-c2cccc(C#N)c2)c1C	-2.9	1	-2	3	x	-2.6	0.3
CCOC(=O)c1sc(=S)n(C)c1N	-1.5	-8	99*	-8	7%	-2.3	-0.3
Cn1nc(C(F)(F)F)c(C#N)c1N1CCN(c2ccc(F)cc2)CC1	-2.5	-3	3	1	70%	-1.0	6.8
CCN(CC)c1ccc(NC(=O)CCS(=O)(=O)c2cccc3nsnc23)c(C)c1	1.3	-4	99*	1	13%	-3.3	0.3

Part of the list above, field by field.
> CCCn1c(SCC(=O)Nc2ccc(S(=O)(=O)N(C)C)cc2)n[nH]c1=O
  LANA-H2A inh: -2.6
  Calb FLC: -35
  ALR inh: -3
  B2AR ag: -3
  Vif TR-FRET: x
  HNF4A DNA FP: -1.6
  RanGTP-Imp inh: 5.6
> CC1(C(=O)Nc2ccccc2)Cc2ccccc2C(=O)O1 (stereo not given)
  LANA-H2A inh: 5.2
  Calb FLC: 6
  ALR inh: -2
  B2AR ag: -3
  Vif TR-FRET: -6%
  HNF4A DNA FP: -2.8
  RanGTP-Imp inh: 2.5
> COc1cc(/C=C/C(=O)OCN2C(=O)c3ccccc3C2=O)ccc1OC(F)F
  LANA-H2A inh: 2.0
  Calb FLC: 1
  ALR inh: -5
  B2AR ag: 11
  Vif TR-FRET: -13%
  HNF4A DNA FP: -2.1
  RanGTP-Imp inh: -3.0
> O=S(=O)(c1ccc(-c2n[nH]c(=S)o2)cc1)N1CCCC1
  LANA-H2A inh: -7.2
  Calb FLC: 7
  ALR inh: x
  B2AR ag: 2
  Vif TR-FRET: x
  HNF4A DNA FP: 4.7
  RanGTP-Imp inh: u

New compounds follow:
SMILES	LANA-H2A inh	Calb FLC	ALR inh	B2AR ag	Vif TR-FRET	HNF4A DNA FP	RanGTP-Imp inh
COc1ccc(NC(C)=O)cc1NC(=O)CN1CCN(C2c3ccccc3-c3ccccc32)CC1	1.9	4	-15	1	-5%	-1.3	2.7
CCOc1cc2[nH]c(=O)n(CCCCCC(=O)NCc3ccco3)c(=O)c2cc1OCC	1.8	-6	-2	4	-1%	-0.3	u
O=[N+]([O-])c1ccc(O)c(C=Nc2ccc3oc(Cc4ccc(Cl)cc4)nc3c2)c1	6.1	-58	-1	x	u	x	1.5
O=C1COc2ccc(S(=O)(=O)N3CCC(C(=O)NCc4ccc(F)cc4)CC3)cc2N1	x	-3	-7	-1	x	1.7	0.3
COc1ccc(NC(=O)C2CCN(S(=O)(=O)c3ccc(OC)c(OC)c3)CC2)cc1	-0.2	-4	-13	10	0%	-4.8	-2.7
COc1ccccc1CNC(=O)C1CCCN(S(=O)(=O)c2cnc[nH]2)C1 (stereo not given)	-4.0	x	-27	3	0%	2.8	x
CCCc1nnc(NC(=O)CCC(=O)N2CCN(C3CCCC3)CC2)s1	-0.8	-16	-17	-5	x	5.8	0.7
Cc1cc(C)c(N(C(=O)c2csnn2)C(C(=O)NC(C)(C)C)c2ccncc2)c(C)c1 (stereo not given)	-0.1	-9	-4	1	x	-1.3	-2.0
CC(C)Oc1ccc(CCNC(=O)C2CCC(=O)N(Cc3cccc(F)c3)C2)cc1 (stereo not given)	6.7	2	-7	2	x	3.5	0.6
O=C(COC(=O)c1cc(=O)[nH]c2ccccc12)NCc1ccc(F)cc1	-4.0	x	x	-1	3%	-2.9	x
CCOc1ccc(-n2c(C)nc3c(cnn3-c3ccc(Cl)cc3)c2=O)cc1	x	-2	x	8	1%	1.4	0.0
CCC(c1nnnn1CCOC)N(Cc1ccc(C)cc1)Cc1cc2cc(OC)ccc2[nH]c1=O (stereo not given)	1.4	5	-33	-20	14%&5%	0.4	-1.0
CCOc1ccc(S(=O)(=O)NCCC(=O)NCc2cccnc2)cc1	6.5	1	-7	1	2%	1.6	-0.2
CCOc1ccc(NC(=O)CN(C)C(=O)c2cccc3ccccc23)cc1OCC	x	x	x	1	5%	2.6	x
CCCCn1c(SCC(=O)c2cc(OC)ccc2OC)nc2cc(S(N)(=O)=O)ccc21	-0.8	-9	-5	5	4%	4.1	1.6
COc1ccc(-c2ccc(/C=N/N3C(=O)C4C5C=CC(C6CC56)C4C3=O)o2)c([N+](=O)[O-])c1 (stereo not given)	x	3	x	10	17%	-5.8	0.4
COc1cc(C(=O)Nc2ccc(S(=O)(=O)N3CCOCC3)cc2)c([N+](=O)[O-])cc1OC	-1.6	-17	-6	-1	x	2.3	-0.1
CCCNC(=O)c1n[nH]c2c1CC(C(C)(C)CC)CC2 (stereo not given)	-2.8	x	0	-22	x	1.3	x
NC(=O)CSc1ncnc2c1nnn2Cc1ccc(F)cc1	x	10	x	-1	x	0.7	2.9
O=C(NCCOC(=O)Nc1cccc2ccccc12)OCc1ccccc1	x	x	x	-12	5%	3.1	x
CCN(CC)c1ccc(C(=O)NNC(=O)CCl)cc1	-0.8	1	x	3	x	-1.1	0.8
Cc1ccc(-c2nnc(SCC(=O)N/N=C/c3ccccc3C(=O)O)n2-c2ccccc2)cc1	6.8	-4	2	x	x	x	5.5
Cc1ccc(S(=O)(=O)Nc2ccc(S(=O)(=O)NCC3CCCO3)cc2)cc1 (stereo not given)	1.0	-2	x	-1	x	-2.5	-3.7
CCc1ccc(C(=O)NC(CC(C)C)C(=O)O)cc1 (stereo not given)	-0.6	-3	0	3	29%	0.7	3.2
Cc1ccc(NC(=O)C2C3CCC(O3)C2C(=O)O)cc1Cl (stereo not given)	-2.5	0	0	2	x	4.5	-4.1
CCC1ON(c2ccccc2)C2c3nc4ccccc4n3CC12 (stereo not given)	6.9	-4	-4	-6	3%	0.9	-4.3
Cc1ccc(N2CCN(C(=O)c3cccs3)CC2)cc1C	-3.0	-6	32	8	2%	3.2	2.8
COc1ccc(C(=O)CN2Cc3ccccc3C2=N)cc1	-2.9	-3	-4	3	-9%	-2.0	1.0
CCc1ccc(OCC(=O)N/N=C/c2ccc(OS(=O)(=O)c3ccc(C)cc3)c(OC)c2)cc1	-4.9	10	24	2	15%	3.4	1.4
CCOC(=O)C=C(OC(=O)c1ccc(OC)cc1)c1ccccc1	x	x	x	4	4%	-4.4	x
O=C(/C=C/c1ccccc1)N/C(=C\c1ccco1)C(=O)NCCO	1.8	3	6	1	0%	0.5	5.2
O=C1/C(=C/c2ccc(F)cc2)SC(=S)N1NS(=O)(=O)c1ccccc1	0.9	54	x	14	-4%	-3.7	-2.7
CCOc1ccccc1N(C(=O)CNS(=O)(=O)c1ccccc1)C(CC)C(=O)NCc1ccco1 (stereo not given)	-2.0	42	-3	4	2%	-1.1	2.5
COCCN(Cc1cc2cc(C)cc(C)c2nc1Cl)C(=O)Nc1ccccc1	-3.4	4	-8	2	23%	0.3	3.5
Clc1ccc(C=NNc2ccccn2)c(Cl)c1	x	x	x	4	0%	-2.2	x
Cc1ccc(S(=O)(=O)NCC(c2ccccc2)N2CCN(CCC#N)CC2)cc1 (stereo not given)	1.4	0	1	-2	0%	1.2	2.3
CCOC(=O)c1oc2ccccc2c1NC(=O)c1cc(OC)cc(OC)c1	1.0	19	-1	31	-7%	0.9	1.2
COc1cc(-c2nn3c(Cc4ccccc4)nnc3s2)cc(OC)c1OC	-1.8	5	14	0	4%	0.1	-1.1
CCC(=O)Nc1cccc(-n2nnnc2SCC(=O)N(C(C)C)C(C)C)c1	2.1	-16	4	-9	-3%	2.8	3.8
CCN(CCNC(=O)C1CCN(S(=O)(=O)CC)CC1)c1ccccc1	2.2	-4	99*	0	-2%	0.7	-4.9
Cn1c(=O)[nH]c(Nc2ccccc2)c([N+](=O)[O-])c1=O	3.1	31	4	-3	1%	1.2	1.9
O=C(NCc1nnnn1-c1ccc(F)c(F)c1)C(=O)c1c[nH]c2ccccc12	0.1	8	-1	0	11%	1.0	3.5
CCS(=O)(=O)c1ccc2oc(Nc3ccccc3Br)nc2c1	-3.4	12	x	5	x	-1.4	-4.3
Cc1nn(C)c(NC(=O)c2ccc(Cl)cc2)c1Cl	-8.0	-4	-1	-2	2%	3.8	1.8
CC(=O)O/N=C/c1c(NCc2ccccc2)nc2c(C)cccn2c1=O	2.0	-5	4	-12	-3%	-1.1	2.1
Cc1cccc(N2CCN(C(=O)Cn3nc(Cc4ccncc4)c4ccccc4c3=O)CC2)c1C	1.4	-6	x	15	x	2.3	-2.1
Cc1ccc(S(=O)(=O)/N=C(/c2ccc(F)cc2)N2CCCC2)cc1	3.3	3	-9	9	1%	4.6	2.8
COc1ccc(NC(=O)CC(C)CC(=O)NCc2ccc(F)cc2)c(OC)c1 (stereo not given)	0.6	4	-36	-1	-8%	0.1	-2.0
CN(C)c1ccc(C(=O)Nc2ccc(S(=O)(=O)NC3=NCCCCC3)cc2)cc1	2.5	-2	14	8	-15%	-0.5	u
CC(C)Nc1c([N+](=O)[O-])c(=O)oc2ccccc12	3.3	-2	5	-6	-4%	0.5	-1.5
CC(=O)NC1=NN(C(C)=O)C(C)(CCS(=O)(=O)c2ccc(Br)cc2)S1 (stereo not given)	0.0	17	1	-10	33%	0.9	5.2
COc1cc(C(=O)NCC(c2cccs2)N2CCOCC2)cc(Br)c1OCc1ccccc1 (stereo not given)	-0.5	x	-4	7	x	-1.0	x
Cc1ccc(NC(=S)Nc2ccc3cn[nH]c3c2)cc1C	-4.9	x	-7	0	29%	1.5	x
